AID504770: growth inhibition of E. coli YBA685, primary screen, V. cholerae RctB inhibitors; 130,000 tested, 0.27% active; AID 504770, 2011; E. coli YBA685 rctB-dependent plasmid, OD600 growth, 3 h; hits give low values; z-score (no concentration beside the values);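 active means z-score under -2 on both plates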;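 further: wells of about 30 µL received 100 nL stock; score is relative to mean and SD of the test wells; the first replicate is given; strong numbers were not always called active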
CapD inh: Bacillus anthracis CapD inhibitors, primary screen, biochemical, fluorescence intensity | purified CapD enzyme, fluorescence intensity read-out; hits give low values; some hits fall short of the stated cut | z-score (test concentration not listed) | AID 492967, 2010 | 140,000 tested, 0.23% active | CapD gamma-glutamyltranspeptidase (Bacillus anthracis Ames Ancestor);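 active means z-score under -4 in either of two replicates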;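 further: stock transfer was 100 nL into about 40 µL; score is relative to mean and spread of the plate; one replicate is shown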
* marks the source's active call; other numbers are inactive results; x = not tested or not shown.

SMILES	AID504770	CapD inh
Cc1ccc(OCCn2c(=S)[nH]c3c(N)ncnc32)cc1	x	-0.085
Cc1ccc(CSc2[nH]c3ccccc3c2N=Nc2ccccc2)cc1	x	-0.075
Cc1cc(C)nc(Nc2n[nH]c(COc3ccc4ccccc4c3)n2)n1	0.65	x
COc1ccc(OC)c(NC(=O)C2CCCCC2C(=O)O)c1 (centres undefined)	-0.35	0.685
O=c1ccc(-c2ccc3c(c2)OCO3)n[nH]1	-2.3	-0.22
Cc1cc(C)c(C(=O)COc2ccc(-c3nnco3)cc2)cc1C	0.95	x
CC(=O)N/N=C/c1ccc(Sc2ccc(C)cc2)o1	0.15	2.45
Cc1ccc(OCc2nnc(SCC(=O)Nc3nccs3)n2C(C)C)c(C)c1	0.4	x
CCOc1cc(CNC23CC4CC(CC(C4)C2)C3)ccc1OCc1cccs1	-0.5	-0.09
Cc1cc(C)c2c(c1)CC(C)(C)c1nc3nonc3nc1-2	x	-0.1
CCCCNC(=O)C1CCCN(S(=O)(=O)c2ccc(-n3cnnn3)cc2)C1 (centres undefined)	-0.05	x
Cc1nccn1-c1nc2nonc2nc1Nc1cccc(Br)c1	x	0.315
O=C(COc1ccccc1)n1c(=O)oc2ccccc21	3.75	-1.35
O=C(CSc1ncn[nH]1)c1ccc(O)cc1O	-0.6	-2.16
NNC(=O)/C(=C\c1ccccc1)NC(=O)c1ccccc1	-0.2	0.625
O=C(NC(=S)SCc1ccccc1)c1ccc(C(F)(F)F)cc1	0.2	-0.655
COc1ccc(-c2nc(CSc3nncs3)cs2)cc1	-0.7	x
Cc1cc(=O)oc2c1c(C)nn2-c1nn[nH]n1	-0.5	0.38
CCOC(=O)c1c(CSc2ccccc2)n(-c2ccccc2)c2cc(Br)c(O)c(CN(C)C)c12	x	-0.415
CC(C)NC(=O)c1ccc2c(c1)N(Cc1ccc(Cl)cc1)C(=O)c1ccccc1S2=O (centres undefined)	0.35	-0.085
COc1cccc(N2C(=O)C(N3C(=O)c4ccc([N+](=O)[O-])cc4C3=O)C2c2cccc(F)c2)c1 (centres undefined)	x	-0.395
COc1cc2ccccc2nn1	0.25	1.23
Cc1c(S(=O)(=O)NCc2ccc(S(N)(=O)=O)cc2)sc2ccc(Cl)cc12	-0.2	-0.485
COc1ccc(NC(=S)N(C(C)C)C2CCN(C(C)C)CC2)cc1Cl	-0.45	0.22

Overlap with the part before: three entries, followed by the next part.
SMILES	AID504770	CapD inh
COc1cc2ccccc2nn1	0.25	1.23
Cc1c(S(=O)(=O)NCc2ccc(S(N)(=O)=O)cc2)sc2ccc(Cl)cc12	-0.2	-0.485
COc1ccc(NC(=S)N(C(C)C)C2CCN(C(C)C)CC2)cc1Cl	-0.45	0.22
COc1ccccc1N1CCN(C(=O)c2nc(S(=O)(=O)Cc3ccccc3)ncc2Cl)CC1	-0.25	-1.25
CCCCCCOc1ccc(C2Oc3ccc(OC)cc3C3CC(c4ccc(OC)cc4)=NN32)cc1 (centres undefined)	x	-0.415
CN1CC(=O)NC1=NC(=O)c1cc(F)c(F)cc1Cl	-0.6	x
CCOC(=O)CNC(=O)CCC(=O)c1ccc(F)cc1	x	-0.325
CCOC(=O)c1c(CBr)n(CCBr)c2cc(Br)c(OC)cc12	x	-0.3
COc1cc(-c2noc(CCC(=O)Nc3cccc(C)c3C)n2)cc(OC)c1OC	-2.8	0.93
COc1ccc(Cl)cc1NCC(=O)Nc1ccc2c(c1)OCCO2	0.15	x
O=C(OCc1ccc(C(F)(F)F)c(F)c1F)N1CCN(Cc2ccc(Oc3ccccc3)cc2)CC1	x	-0.08
O=C(O)c1cc(=O)c2cc(Cl)ccc2o1	0.15	x
COc1cc(C2C3CCCC=C3C(C#N)=C(N)C2(C#N)C#N)cc(OC)c1OC (centres undefined)	x	0.645
CC(C)=NOC(=O)Nc1ccc(Cl)cc1	-0.75	-0.16
CC1CCCC(NC(=O)COC(=O)COc2ccccc2C#N)C1C (centres undefined)	-0.55	x
C=CCn1ncc(CO)c1C	-1.1	-0.28
O=C1/C(=C/c2ccc(-c3ccc([N+](=O)[O-])cc3)o2)C=C(c2ccccc2)N1c1ccc(F)cc1	x	-0.705
Nc1nc(CSc2ccccn2)nc(Nc2ccccc2)n1	-0.75	x
O=C(c1ccccc1)c1ccccc1N1C(=O)C=CC1=O	-1.6	-0.965
CC1(O)c2ccccc2C(=O)N1Cc1ccccc1 (centres undefined)	-0.3	0.255
CCCc1[nH]n(-c2ccc(F)cc2)c(=O)c1C=N	-0.75	-1.79
CC1CCN(S(=O)(=O)c2ccc(NC(=O)CSc3nnnn3C)cc2)CC1	-0.5	x
O=C(O)CCCOc1ccc2c(c1)OCO2	-0.75	x
CCCc1nnc(NC(=O)C2CC(=O)N(C3CCCC3)C2)s1 (centres undefined)	0.25	x
CCOC(=O)N1CCN(CC(O)COC2CC(C)CCC2C(C)C)CC1 (centres undefined)	0.85	0.24
CNCCCc1ccco1	0	x
O=C(O)c1cc(S(=O)(=O)NCCN2CCNC2=O)ccc1O	0.65	7.81

A few values from above.
Value for CC(=O)N/N=C/c1ccc(Sc2ccc(C)cc2)o1 in CapD inh: 2.45
Value for O=C(OCc1ccc(C(F)(F)F)c(F)c1F)N1CCN(Cc2ccc(Oc3ccccc3)cc2)CC1 in CapD inh: -0.08
Value for COc1cc2ccccc2nn1 in CapD inh: 1.23
Value for COc1cccc(N2C(=O)C(N3C(=O)c4ccc([N+](=O)[O-])cc4C3=O)C2c2cccc(F)c2)c1 (centres undefined) in CapD inh: -0.395

A different layout for 3 compounds above:
Value order – AID504770, CapD inh
- CC1(O)c2ccccc2C(=O)N1Cc1ccccc1 (centres undefined)
    -0.3, 0.255
- CC1CCN(S(=O)(=O)c2ccc(NC(=O)CSc3nnnn3C)cc2)CC1
    -0.5, x
- CCOC(=O)N1CCN(CC(O)COC2CC(C)CCC2C(C)C)CC1 (centres undefined)
    0.85, 0.24

The results go on:
SMILES	AID504770	CapD inh
NCC1CCCN(CCc2ccccc2)C1 (centres undefined)	-1	x
O=C(NCC1CCCO1)c1cc(=O)oc2cc(OCc3ccc(Cl)cc3)ccc12 (centres undefined)	x	17.4
O=S(=O)(c1cc(C(F)(F)F)cc(C(F)(F)F)c1)N1CCN(CCCO)CC1	x	-0.53
N#Cc1c(-c2c(O)[nH]c3ccccc23)c2c(-c3ccncc3)[nH]nc2oc1=N	-0.5	0.465
COc1cc(-c2nc(/C=N/c3nc4ccccc4n3C)c(O)o2)cc(OC)c1OC	x	0.18
CC(C)C(C(=O)NC1CN2CCC1CC2)c1ccc(Cl)cc1 (centres undefined)	0.15	x
O=C(c1ccc(CSc2ccccn2)o1)N1CCC(O)(c2ccc(Cl)cc2)CC1	x	-0.97
Cc1ccccc1-c1nc(SCc2ccccc2)c(C#N)c2c1CCC2	x	-0.67
CCC(C)(C)c1ccc(S(=O)(=O)N2CCN(Cc3cc(Br)c(OC)cc3OC)CC2)cc1	x	0.045
Cc1ccc2c(COC(=O)C3CSC4(C)CCC(=O)N34)cc(=O)oc2c1C (centres undefined)	-0.05	x
Cc1ccc(C(=O)NCC(=O)OC2CCCCC2=O)cc1C (centres undefined)	-0.2	x
CCOC(=O)c1ccc(Nc2ncnc3c2cnn3Cc2ccccc2)cc1	0.75	28.4
Cn1c(=O)n(Cc2cccc(Cl)c2)c(=O)c2c1ncn2Cc1ccccc1	x	0.14
COC(=O)/C(C#N)=C/c1ccc(Cl)cc1	0.1	0.445
COc1ccc(Cl)cc1NC(=O)c1ocnc1C	-0.05	x
CCOC(=O)C1CCN(/C=C2/C(=O)NC(=O)N(c3cccc(C)c3C)C2=O)CC1	-0.25	-0.42
O=C1CSc2ccc(C(=O)NCc3c(F)cc(F)cc3F)cc2N1	-0.1	-1.23
Clc1ccc(-c2csc3ncnc(NCc4ccco4)c23)cc1	0.65	x
COc1cc(-c2nnc(SCC(=O)N3CCCCC3C)o2)cc(OC)c1OC (centres undefined)	-0.7	6.83
OCCn1c2ccccc2c2cc(Cl)ccc21	2.2	7.01
CCn1c2ccccc2c2cc(CN3CCN(C(=O)OCc4ccc(C(C)C)cc4)CC3)ccc21	x	11.3
O=C(O)c1ccccc1N1Cc2ccccc2C1=O	0.4	-0.255
Cc1c(C(=O)Nc2ccc(F)cc2F)sc2ncn(CC(=O)Nc3cccc(C(F)(F)F)c3)c(=O)c12	x	0.43
COC(=O)c1ccccc1S(N)(=O)=O	-0.45	x
O=C(O)/C=C/C(=O)NC1CC1	0.2	2.08
COc1cccc(CN(CCO)Cc2ccccc2)c1OC	-0.15	x
O=S(=O)(c1ccc(Cl)nc1)N1CCCC1	2	0.11
Oc1ccccc1-c1ccc2cccnc2n1	x	-0.69
COc1ccc(/C=C2\N=C(c3cc(Br)ccc3OC)OC2=O)cc1OC	x	-0.07
CCN=c1scc(-c2ccc(O)c(C(N)=O)c2)n1/N=C/c1ccc2c(c1)OCCO2	0.2	x
C/C(=N\N=C1\NC(=O)CS1)c1cccs1	-0.4	-2.67
O=C1c2ccccc2-c2onc3c(Br)cc(NCc4ccccc4)c1c23	0.15	0.05
CC(C(=O)N1CCCCC1)N1c2cccc3cccc(c23)S1(=O)=O (centres undefined)	2.65	3.84
O=C(CSC1=Nc2ccccc2C2=NC(CC(=O)NCc3ccccc3)C(=O)N12)NCc1ccco1 (centres undefined)	-1.1	20.5
CC(=O)Nc1ccc(CNCCc2nnc3ccccn23)cc1	-0.25	x
CCOC(=O)c1c(C)c(C#N)c(N)n1-c1ccc(C)cc1	0.95	0.175
CN(CCO)C(=O)c1ccc2c(c1)C(=O)c1ccccc1-2	1.6	39.2
COc1cccc(/C=C2\CN(C)C/C(=C\c3cccc(OC)c3)C2=O)c1	0.15	13.3
COC(=O)CC(=O)N1CCN(c2ccc(Cl)c(Cl)c2)CC1	-0.35	-0.645
Cc1oc(-c2ccccc2Cl)nc1Cn1cccc1C1=NC(c2ccccc2)CO1 (centres undefined)	2.35	-1.44
O=C(O)CNc1nc(-c2ccccc2)nc2ccccc12	-0.3	0.465
CCOC(=O)c1sc2nc(C)nc(Cl)c2c1C	1.75	x
CN(CC(=O)Nc1ccc(OC(F)(F)F)cc1)C(=O)C1CC(=O)N(C2CCCC2)C1 (centres undefined)	-0.85	x
CCOc1ccc(N(CC)C(=O)C2CCCN2S(=O)(=O)c2cccc3nsnc23)cc1 (centres undefined)	0.35	-0.4
CC1=C(C(=O)Nc2ccc(Br)cn2)C(c2ccc([N+](=O)[O-])cc2)C2=C(CCCC2=O)N1 (centres undefined)	x	-0.63
CSc1ccc(CN2CCOCC2)cc1	-1.05	0.37
CCn1c(SCc2ccc(C#N)cc2)nnc1-c1ccco1	0.15	x
C=CCC1(C(C)CCC)C(=O)N=C(S)NC1=O (centres undefined)	x	0.005
CCOC(=O)c1nc(Cn2cc(I)cn2)no1	1.95	-1.58
O=C(CC(c1ccccc1)c1ccccc1)N1CCN(c2ccccn2)CC1	-0.75	x
COC(=O)c1cscc1OC	x	0.105
COc1ccccc1N1CCN(c2ncnc3c2cnn3-c2ccccc2)CC1	x	-0.465
CCC1CCCCN1C(=O)/C=C/c1ccc(C)cc1 (centres undefined)	1.3	-0.095
Cc1ccc(S(=O)(=O)NCC2OCCc3ccccc32)cc1 (centres undefined)	-0.1	-0.55
O=C(c1ccc(Cl)c(Cl)c1)N1CCc2c([nH]c3ccccc23)C1c1ccc([N+](=O)[O-])cc1 (centres undefined)	x	-0.215
CCc1cc(=O)[nH]c(SCc2cccc(Cl)c2)n1	-1.75	0.105
O=c1[nH]nc(N2CCN(c3nc(CSc4ccccc4)nc4sc5c(c34)CCC5)CC2)c(=O)[nH]1	-0.55	x
Cc1ccc(C2C3=C(CC(C)(C)CC3=O)NC3=C2C(=O)CC(C)(C)C3)cc1	x	36.6
Cc1ccc(-n2c(=S)sc3c(=O)n(-c4ccccc4F)c(=S)[nH]c32)cc1C	x	-1.32
O=C(Nc1ccc(C(F)(F)F)cc1)c1ccc(-c2ccccc2F)cc1	x	-0.145

(cont.)
SMILES	AID504770	CapD inh
COc1cccc(-c2cc(C(=O)N3CCN(C(=O)c4ccco4)CC3)on2)c1	0.35	-1.23
COc1ccc(C(=O)On2c(-c3ccccc3F)nc3ccccc3c2=O)cc1Br	x	-0.275
O=C(O)C1CCC(=O)N1C1CCCC1 (centres undefined)	1.9	x
O=C(Nc1ccccc1-c1nc(-c2ccc(Cl)cc2)no1)C(F)(F)F	-0.5	-0.58
N#CCCn1cc(/C=N/NC(=O)c2cnccn2)c2ccccc21	-0.15	x
Cc1cccc(OCC(O)CN2CCCCC2)c1 (centres undefined)	-0.1	-0.215
O=C(NCc1ccccc1)c1cccc(S(=O)(=O)N2CCN(c3ccccc3)CC2)c1	0.35	x
O=C(CSc1ccccn1)Nc1ccc(OC(F)(F)F)cc1	0.1	0.26
O=C(CCC(=O)N1CCC(N(C2CC2)S(=O)(=O)c2cccc(C(F)(F)F)c2)CC1)NCCc1ccccc1	x	-0.115
Cc1cc2c(cc3c(SCc4ccccc4)nncn32)o1	0.45	0.69
CN(C)Cc1ccccc1CNC(=O)CCC1CCCC1	0.05	x
CN1C(=O)C(=Cc2ccc(Br)cc2)C(=O)N(C)C1=O	-0.05	0.42
CC(C)CC(=O)N1CCN(S(=O)(=O)c2ccccc2)CC1	0.15	x
N#Cc1sc2sc(C#N)c(-c3ccco3)c2c1N	1.65	-1.25
COc1cccc(N2C(=O)/C(=C/c3ccc(OC)c(Br)c3)C=C2c2ccccc2)c1	x	-0.11
COc1ccc(CC(=O)NCc2ccc3[nH]c4c(c3c2)CCCC4)cc1	0.2	29

An excerpt; the hit share may differ from the screen's.
